Bioassay records: PubChem, National Center for Advancing Translational Sciences (NCATS)
POLH inh: inhibitors of human DNA polymerase eta. Q9Y253. recombinant Pol eta, fluorescent DNA replication assay. Potency, µM (titrated, usually from 114 µM), for inactives: at the top dose activity change, negative = inhibition, usual class: inhibitors. 390,000 tested, 1.2% active; further: on the % scale 0 is the no-effect control and ±100 the full control effect
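Pol eta (10 nM) was preincubated with compounds for 15 min at room temperature, after which fluorescent replication substrate (50 nM final) was added to start the reaction. Fluorescence was read kinetically at 0 and 10 min.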
POLK inh: inhibitors of human DNA polymerase kappa; Potency, µM (series often up to 107 µM), without a hit: top-dose activity, negative = inhibition, hits mostly inhibitors; 400,000 tested, 0.53% active; Q9UBT6; purified Pol kappa, fluorescent DNA synthesis assay, 10 min; further: on the % scale 0 is the no-effect control and ±100 the full control effect
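10 nM Pol kappa was preincubated with compounds for 15 min at room temperature. Reaction started with 50 nM (final) substrate. Fluorescence read kinetically at 0 and 10 min.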
APE1 inh: APE1 (human) endonuclease inhibition. P27695. recombinant APE1, TAMRA/BHQ-2 abasic DNA cleavage fluorescence. Potency, µM (doses to about 65.8 µM), without a hit: at the top dose activity change, negative = inhibition, hits mostly inhibitors. 350,000 tested, 0.35% active;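 further: plate controls were vehicle for no effect and reference inhibitor for full effect; nearly all actives have a fitted effect of over 55% in size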
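Quantitative HTS: incision of a TAMRA/BHQ-2 double-stranded substrate bearing a tetrahydrofuran abasic site by 0.75 nM APE1 raises fluorescence. Substrate 50 nM final, added after 15 min compound preincubation at room temperature; progress as third-minus-first kinetic read difference.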
Pol beta inh: DNA polymerase beta (human) inhibition; 340,000 tested, 1.3% active; Potency, µM (doses to about 114 µM), for inactives: top-dose activity change, negative = inhibition, actives largely listed as inhibitors; P06746; Pol beta primer extension/strand displacement, fluorescence kinetic; further: on the % scale 0 is the no-effect control and ±100 the full control effect
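Preincubation: enzyme (10 nM) with compound, 15 min, RT. Reaction: substrate added to 50 nM final. Reads: 0 and 10 min. Analysis: normalized, Hill fit.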
JMJD2A Tudor inh: inhibitors of human JMJD2A Tudor domain; O75164; AlphaScreen JMJD2A-Tudor / H3K4me3 peptide binding; Potency, µM (series often up to 114 µM), inactives show at the highest dose activity change, negative = inhibition, usual class: inhibitors; 390,000 tested, 4.4% active; further: on the % scale 0 is the no-effect control and ±100 the full control effect; nearly all actives have a fitted effect of over 50% in size
Target sequence (O75164 whole entry, looked up, the tested form may be a part): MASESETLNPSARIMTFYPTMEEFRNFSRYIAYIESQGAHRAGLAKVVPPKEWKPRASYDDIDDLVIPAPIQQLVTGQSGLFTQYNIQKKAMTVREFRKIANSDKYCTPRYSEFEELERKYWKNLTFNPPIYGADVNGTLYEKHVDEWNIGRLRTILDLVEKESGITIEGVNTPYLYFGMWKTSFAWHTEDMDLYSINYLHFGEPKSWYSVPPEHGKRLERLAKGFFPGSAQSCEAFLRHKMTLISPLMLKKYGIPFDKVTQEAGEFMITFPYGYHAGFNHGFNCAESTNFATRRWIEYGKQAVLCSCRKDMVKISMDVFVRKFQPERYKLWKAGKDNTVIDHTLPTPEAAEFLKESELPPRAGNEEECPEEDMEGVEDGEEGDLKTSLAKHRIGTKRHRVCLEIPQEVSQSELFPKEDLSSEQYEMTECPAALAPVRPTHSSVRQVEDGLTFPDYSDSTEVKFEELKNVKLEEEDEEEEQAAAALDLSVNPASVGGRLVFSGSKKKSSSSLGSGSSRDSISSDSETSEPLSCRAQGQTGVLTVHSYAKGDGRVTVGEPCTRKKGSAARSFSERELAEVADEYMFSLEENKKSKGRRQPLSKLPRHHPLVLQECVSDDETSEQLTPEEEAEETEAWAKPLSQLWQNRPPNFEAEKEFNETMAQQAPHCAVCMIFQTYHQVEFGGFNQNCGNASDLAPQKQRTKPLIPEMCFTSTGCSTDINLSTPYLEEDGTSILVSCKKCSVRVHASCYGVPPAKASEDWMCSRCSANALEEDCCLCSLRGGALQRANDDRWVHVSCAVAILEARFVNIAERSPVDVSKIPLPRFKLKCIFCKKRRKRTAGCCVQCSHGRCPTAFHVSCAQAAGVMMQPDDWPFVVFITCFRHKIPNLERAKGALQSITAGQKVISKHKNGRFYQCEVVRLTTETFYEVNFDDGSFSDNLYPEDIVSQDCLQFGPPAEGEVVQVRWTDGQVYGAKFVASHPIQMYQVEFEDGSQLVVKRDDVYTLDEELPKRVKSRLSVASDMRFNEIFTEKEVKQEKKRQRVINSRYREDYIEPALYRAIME
G9a block: G9a (human) methyltransferase inhibition. Potency, µM (highest dose often 102 µM), inactives show top-dose activity, negative = inhibition, most hits filed as inhibitors. Q96KQ7. G9a H3K9 monomethylation, AlphaScreen, 2 h. 350,000 tested, 8.8% active; further: on the % scale 0 is the no-effect control and ±100 the full control effect; nearly all actives have a fitted effect of over 75% in size
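Quantitative HTS format: methyltransferase activity on a biotin-tagged H3K9 peptide is measured by AlphaScreen, using a rabbit anti-monomethyl-H3K9 antibody with streptavidin donor and anti-IgG acceptor beads. Final levels are 20 nM enzyme, 500 nM peptide, 20 uM SAM; 2 h RT.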
BLM helicase inh: Bloom syndrome helicase (human) inhibition; P54132; Potency, µM (highest dose often 56.1 µM), inactives show top-dose activity change, negative = inhibition, actives largely listed as inhibitors; 350,000 tested, 0.2% active; recombinant BLM DNA unwinding, fluorescence dequenching;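 further: plate controls were vehicle for no effect and no enzyme for full effect; nearly all actives have a fitted effect of over 35% in size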
POLI inh: DNA polymerase iota (human) inhibition; 390,000 tested, 1% active; Potency, µM (highest dose often 115 µM), inactives show at the highest dose activity, negative = inhibition, most hits filed as inhibitors; Q9UNA4; Pol iota fluorescent replication assay, 10 min
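Pol iota at 10 nM preincubated 15 min with compounds at room temperature; reaction started with fluorescent substrate, 50 nM final. Fluorescence read kinetically at 0 and 10 min; buffer-only wells as negative control.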
Numbers without * were called inactive; ? = inconclusive; / = no result given; [ ] = another dose, or the depositor's remark. The call rests on the fitted dose curve; in most records, active means well fitted curve in the direction sought with a large enough effect; inconclusive means small, poorly fitted or top-dose-only effect, or another doubt; inactive means no such curve, though single readings can be large; an effect the other way counts as inactive or inconclusive. Potency means the concentration at half of the fitted maximal effect. Some of the compounds tested (hit frequency here may not be typical).

canonical_smiles,POLH inh,POLK inh,APE1 inh,Pol beta inh,JMJD2A Tudor inh,G9a block,BLM helicase inh,POLI inh
CSc1nc(Oc2ccc3ccccc3c2)c2sccc2n1,-4.5%,-9.3%,-2.9%,-17.3%,50.5%[activator],69.7%[activator][59 µM],-8.2%,1.6%
O=C(O)c1cccc(NN=C2c3ccccc3-c3ccccc32)c1,?,-8.7%,2.9%,?,?,39.8µM*,1.8%,43.0%[activator]
CC(=O)N1N=C(c2cccc([N+](=O)[O-])c2)OC1c1cccc(Br)c1 (stereo not given),-24.7%,-6.8%,2.2%,-1.8%,-16.5%[11.4 µM],?,-11.7%,70.2%[activator]
Cn1nc(C(=O)OCC(=O)N2CCc3ccccc32)c2ccccc2c1=O,4.8%,-13.0%,12.3%,32.2%,-10.0%,-3.2%[59 µM],-2.9%,10.0%
Cc1ccccc1NS(=O)(=O)c1ccc2[nH]cc(C(=O)N3CCCC3)c(=O)c2c1,89.1µM*,5.4%[60.1 µM],/,?,-16.0%,-27.9%[59 µM],1.1%,?
CCc1n[nH]c(=S)n1/N=C/c1ccc(N(C)c2ccccc2)cc1,-20.3%,3.1%,-1.7%,-17.3%,?,?,-16.9%,60.8%[activator]
Cc1ccc(/C=C2\CCn3c2nc2cc(C(=O)O)ccc2c3=O)c(C)c1,79.4µM*,-11.4%,39.7%[activator],38.8%,-9.8%,13.5%,0.4%,24.3%
COc1ccccc1N1CCN(/N=C/C(Cl)=C/c2ccccc2)CC1,-24.3%,-4.5%,-1.4%,2.3%,?,/,-9.3%,27.8%
Cn1c(SCC(=O)NC2CC2)nnc1-c1cccs1,-13.2%,6.4%,0.6%,6.4%,9.0%,/,-14.8%,16.5%
C=CCN1C(=O)c2ccc(C(=O)N3CCN(S(=O)(=O)c4ccccc4Br)CC3)cc2C1=O,-12.8%,-3.5%,10.3%,/,-11.9%,6.7%[0.501 µM],/,31.0%[activator]
CC(C)Nc1nc(N(c2ccccc2)c2ccccc2)nc(-n2ccnc2)n1,-12.5%,-2.2%,-0.8%,2.4%,11.9%,6.8%[59 µM],-0.1%,-9.3%
Cc1cc(C)cc(OCc2cc(=O)n3c4c(sc3n2)CCCC4)c1,-11.1%,0.2%,/,0.5%,-11.3%,-5.6%[59 µM],-5.2%,47.5%[activator]
CCCn1c(=O)c2sccc2n2c(CCCC(=O)NCc3ccco3)nnc12,35.5µM*,?,-11.5%,?,?,-10.0%,-19.2%,20µM*
CCCOC(=O)c1cccc(NC(=O)C(C)(C)C)c1,4.1%,-23.5%,-1.3%,-11.0%,-6.2%,-6.3%[59 µM],-4.2%,13.9%
CC(=O)Nc1ccc(NC(=O)C(C)OC(=O)COc2ccc(Nc3ccccc3)cc2)cc1 (stereo not given),-9.5%,-4.4%,-2.9%,/,?,?,/,-2.4%
Oc1c(C(c2ccccc2Cl)N2CCN(Cc3ccccc3)CC2)sc2nc(-c3ccco3)nn12 (stereo not given),-11.6%,-6.7%[60.1 µM],/,-2.3%,?,?,-2.1%,-14.4%
C=CCN(C(=O)c1cccc(S(=O)(=O)N2CCN(C)CC2)c1)c1nc(-c2ccccc2)cs1,?,-28.8%,?,?,?,?,-13.7%,?
CC1CSC(N(C(=O)c2ccc(S(C)(=O)=O)cc2)c2ccc(Cl)cc2)=N1 (stereo not given),-4.5%,1.6%,-14.0%,1.3%,-17.2%,8.91µM*,-3.5%,10.7%
COc1ccc(-n2cc(-c3ccccc3)c3c(NCCc4ccc(OC)c(OC)c4)ncnc32)cc1,-20.2%,-7.0%[60.1 µM],/,-7.9%,?,?,-9.1%,5.1%
O=C(c1ccco1)N1CCN(CCCCOc2cccc3ccccc23)CC1,-20.5%,-3.4%,-5.8%,-1.4%,?,44.7µM*,1.9%,9.7%
Cn1c(=O)n(C)c2cc(N3CCOCC3)c(NC(=O)c3ccccc3Br)cc21,-25.2%,4.7%,/,14.7%,-23.3%,-24.6%[59 µM],-7.4%,45.9%[activator]
CN1CCN(CCCNCc2cn(CCC#N)c3ccccc23)CC1,-5.4%,-0.3%,30.3%,23.9%,?,50.1µM*,3.1%,-5.6%
CC1CCCCC12NC(=O)N(CC(=O)NC(=O)NCc1ccco1)C2=O (stereo not given),-9.1%,-1.1%,9.6%,32.1%,-17.1%,-48.0%[59 µM],-5.3%,-9.8%
Cc1cccc(N2C(N)=NC(N)=NC23CCCCC3)c1,2.7%,-10.7%,1.9%,0.3%,?,-35.2%,-5.2%,-4.3%
Cc1cc(C)n(-c2ccc(F)cc2)c(=O)c1C(=O)O,-14.0%,7.8%,12.8%,-15.0%,-11.5%,3.6%[59 µM],-9.3%,-3.8%
CCOC(=O)N1CCN(Cc2nc(N)nc(Nc3ccccc3C)n2)CC1,-16.0%,-17.5%,0.4%,20.6%,?,?,-4.0%,11.1%
Cc1ccc(C2=NNC(C(O)C(O)C(O)C(C)O)S2)cc1 (stereo not given),12.3%,-6.4%,15.5%,2.7%,-7.9%,?,-2.8%,20.3%
CCc1ccc(S(=O)(=O)Nc2cc3c(cc2C)n(C)c(=O)n3C)cc1,-15.4%,-12.4%,-1.1%,13.2%,-0.4%,-0.4%,-0.4%,-2.2%
Cc1cc(C)cc(NC(=S)N2CCN(Cc3ccccc3)CC2)c1,-15.9%,-9.1%,11.4%,19.1%,-32.9%,-35.8%,-13.3%,62.3%[activator]
COc1ccccc1Cn1c(SCC(=O)C(C)(C)C)nc2ccccc2c1=O,-18.8%,2.1%[60.1 µM],/,-14.3%,-11.7%,-1.8%[59 µM],-6.8%,32.9%[activator]
O=c1c2ccc([N+](=O)[O-])cc2ncn1CCOc1ccc(Cl)cc1,-17.2%,-0.3%,-2.2%,-14.4%,?,?,-7.2%,0.6%
CCOCCCNc1ccc(N2C(=O)C3CCCCC3C2=O)cc1[N+](=O)[O-] (stereo not given),-10.7%,-0.6%,13.8%,28.6%,-20.0%,10.5%,-3.3%,30.6%[activator]

Part of the list above, with two lines to a compound:
Screens in order: POLH inh | POLK inh | APE1 inh | Pol beta inh | JMJD2A Tudor inh | G9a block | BLM helicase inh | POLI inh
COc1ccccc1Cn1c(SCC(=O)C(C)(C)C)nc2ccccc2c1=O
→ -18.8% | 2.1%[60.1 µM] | / | -14.3% | -11.7% | -1.8%[59 µM] | -6.8% | 32.9%[activator]
O=c1c2ccc([N+](=O)[O-])cc2ncn1CCOc1ccc(Cl)cc1
→ -17.2% | -0.3% | -2.2% | -14.4% | ? | ? | -7.2% | 0.6%
Cc1ccc(C2=NNC(C(O)C(O)C(O)C(C)O)S2)cc1 (stereo not given)
→ 12.3% | -6.4% | 15.5% | 2.7% | -7.9% | ? | -2.8% | 20.3%
Cc1cc(C)n(-c2ccc(F)cc2)c(=O)c1C(=O)O
→ -14.0% | 7.8% | 12.8% | -15.0% | -11.5% | 3.6%[59 µM] | -9.3% | -3.8%
Cc1cc(C)cc(NC(=S)N2CCN(Cc3ccccc3)CC2)c1
→ -15.9% | -9.1% | 11.4% | 19.1% | -32.9% | -35.8% | -13.3% | 62.3%[activator]

The results go on:
canonical_smiles,POLH inh,POLK inh,APE1 inh,Pol beta inh,JMJD2A Tudor inh,G9a block,BLM helicase inh,POLI inh
Clc1ccc(/C=C/c2ncc[nH]2)c(Cl)c1,-18.5%,1.7%,-17.7%,0.1%,-24.6%,8.6%[12.7 µM],-0.1%,?
O=C(NCCCn1ccnc1)/C(=C\c1cccnc1)NC(=O)c1ccco1,-5.3%,0.0%,2.4%,-25.1%,-6.4%,-1.9%,-3.5%,3.1%
CS(=O)(=O)c1cccc(-c2nnc(NC(=O)CCS(=O)(=O)c3ccccc3)o2)c1,-13.3%,-8.1%,11.5%,/,?,31.6µM*,/,30.6%[activator]
COc1ccc(OC)c(Nc2ncnc3c2cnn3-c2ccc(C)cc2)c1,-8.2%,-9.8%[60.1 µM],/,17.4%,-1.5%,-2.3%[59 µM],-1.7%,-6.2%
Cc1c(NC(=O)c2cc(=O)[nH]c(=O)[nH]2)c(=O)n(-c2ccccc2)n1C,-18.6%,-0.1%,3.2%,0.4%,-14.2%[57.1 µM],18.1%,-0.3%,-5.4%
O=C(Nc1ccc2c(c1)OCCO2)c1cc(-c2ccccc2)nc2ccccc12,-6.6%,-12.4%,-5.4%,9.8%,?,-2.3%,-10.0%,-4.8%
O=C(CSc1nccn1-c1ccc(Cl)cc1)NCc1ccc2c(c1)OCO2,?,-21.2%,-1.8%,9.6%,?,50.1µM*,-1.1%,-27.1%
COC(=O)c1nc(NC(=O)C(C)(C)C)n[nH]1,1.8%,-8.2%,1.7%,0.8%,-11.3%,?,0.9%,79.4µM*
Cc1ccc2cc(C#N)c(NCCNC(=S)NCCCN3CCOCC3)nc2c1,-9.5%,-11.2%,2.6%,-12.6%,-11.6%,39.8µM*,-9.2%,8.1%
Cc1ccc(-c2ccc(C(=O)NCc3ccccc3)o2)c2ccccc12,-16.0%,1.3%,-7.2%,-9.2%,-26.4%,39.8µM*,-4.6%,?
O=C(CN1CCN(c2nc(-c3ccccc3)cs2)CC1)NCc1ccc2c(c1)OCO2,-8.2%,-28.1%,-2.7%,6.0%,?,?,-9.6%,-25.7%[58.9 µM]
Cc1c(C(=O)NCc2ccc(Cl)cc2)sc2nc3n(c(=O)c12)CCCCC3,-21.6%,-23.9%,/,-20.2%,-32.9%,28.2µM*,-6.7%,8.2%
O=C(COc1ccc(Cl)cc1Cl)N/N=C/c1ccc[nH]1,-12.5%,-11.7%,-11.4%,21.4%,?,/,-2.1%,18.5%
CCS(=O)(=O)N1CCC(N2CCC(C)CC2)CC1,?,-13.6%,-9.9%,?,-8.8%[11.4 µM],8.91µM*,-0.7%,-7.1%
COc1ccc(/C=C/C(=O)Nc2sc3c(c2C(=O)NCc2cccnc2)CCCC3)cc1,-16.1%,-9.7%,0.3%,44.1%[activator],6.3%,25.6%[0.501 µM],-8.2%,28.5%
O=C(NC(=S)N1CCN(Cc2ccc3c(c2)OCO3)CC1)c1ccc(Cl)cc1,-19.3%,-10.0%,-1.9%,2.9%,?,?,-0.9%,7.2%
CCCCOc1cccc(C(=O)Nc2ccc3oc(-c4cccnc4)nc3c2)c1,-21.8%,-13.3%,/,-18.1%,-12.7%,-43.3%[59 µM],-4.4%,50.3%[activator]
C=CCN1C(=O)c2ccc(C(=O)N3CCN(S(=O)(=O)c4cccc([N+](=O)[O-])c4)CC3)cc2C1=O,-20.3%,1.8%,-9.6%,/,-10.1%,-3.3%[12.7 µM],/,28.9%
[O-]/[N+](=C\c1ccco1)c1ccc(Cl)cc1,-16.4%,-12.2%,1.5%,-0.1%,-14.0%,44.7µM*,-0.5%,22.7%
O=C(NCCNC(=O)c1ccccc1)c1ccccc1,-17.4%,-0.2%,15.0%,3.1%,?,/,2.6%,36.2%
